High-throughput results deposited in PubChem BioAssay by several laboratories.
UCH37 DUB inh = blocks the human deubiquitinase UCH37; Q9Y5K5; purified proteasome/UCH37, Ub-AMC cleavage fluorescence; inhibition, % (concentration not given with the values); 0.33% of 330,000 active; AID 588478;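 active = mean of two replicates above 20%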;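 note: 0% = compound-free wells with enzyme and 100% = wells lacking proteasome; stock transfer was 100 nL into about 20 µL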
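Signal – fluorescence, ex 355 nm, em 460 nm · System – Proteasome-bound UCH37 · Input – 0.15 nM proteasome as dispensed · Timing – 30 min preincubation with enzyme, 25 min cleavage at room temperature · Read-out basis – percent inhibition of cleavage signal versus uninhibited and no-proteasome wells · Medium – Tris-HCl pH 7.4 with ATP-MgCl2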
E coli growth = E. coli growth inhibition | Escherichia coli growth, OD600, 23 h; stronger effect = lower value | OD600 absorbance (concentration not given with the values) | 0.21% of 330,000 active | AID 1053175;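 active = OD600 absorbance below the run mean of sample wells minus 3.6 SD, in any replicate, cut at about 0.56 in these data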;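 note: stock transfer was 300 nL into about 60 µL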
LANA-H2A inh = blocks KSHV LANA binding to histone H2A/H2B; AID 2629; inhibition, % (concentration not given with the values); 0.6% of 320,000 active; cell-free LANA-H2A/H2B peptide, fluorescence polarization; in the data active = inhibition mostly above about 10%, no sharp cut-off; inactive = mostly below about 6.7%;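 note: stock transfer was 7.5 nL into about 10 µL; 0% = median of vehicle wells and 100% = median of positive control wells; one replicate is shown; the record names a cut of 25% in any replicate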
B2AR ag = agonists of human beta-2 adrenergic receptor inducing internalization. P07550. Am2.2-beta2AR cells, FAP receptor internalization, flow cytometry; reference of the scale not given here. response, % (concentration not given with the values). 0.43% of 340,000 active. AID 504454;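 active = response above a set limit, near 3 SD of response in nonfluorescent compounds, cut at about 42% in these data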;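 note: stock transfer was 100 nL into about 11 µL; a reference agonist was the positive control; negative values mostly stem from fluorescent compounds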
ALR H2O2 inh = human ALR oxidase inhibition via reduced H2O2. purified ALR, DTT oxidation, H2O2 HRP-luminol luminescence. P55789. 3.8% of 290,000 active. AID 485317. inhibition, % (test concentration not listed);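 active = mean and each replicate at 75% or more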;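 note: stock transfer was 7.5 nL into about 7.5 µL; 0% = neutral wells and 100% = wells with inactivated enzyme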
Target sequence (P55789 whole entry, looked up): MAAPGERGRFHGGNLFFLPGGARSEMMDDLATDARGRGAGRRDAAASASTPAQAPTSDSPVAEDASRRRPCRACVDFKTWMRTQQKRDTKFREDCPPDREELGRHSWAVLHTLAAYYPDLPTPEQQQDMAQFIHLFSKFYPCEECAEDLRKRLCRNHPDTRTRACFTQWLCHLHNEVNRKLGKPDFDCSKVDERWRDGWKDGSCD
FGF22 binding = binders of recombinant human FGF22 by thermal shift | Q9HCT0 | SYPRO orange fluorescence; percent of sucrose octasulfate shift, DMSO zero | calls only at 9.99 µM | 1.5% of 340,000 active;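 active = melting point raised past a set limit in the mean and every replicate; three in four hits are not shown here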
Target sequence (Q9HCT0 whole entry, looked up): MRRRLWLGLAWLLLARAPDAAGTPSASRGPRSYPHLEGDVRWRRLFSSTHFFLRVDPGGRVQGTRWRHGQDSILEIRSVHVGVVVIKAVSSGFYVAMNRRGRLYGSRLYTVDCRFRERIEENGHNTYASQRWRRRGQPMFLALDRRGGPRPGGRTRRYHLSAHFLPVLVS
HNF4A DNA FP = change in binding of human HNF4 alpha to DNA; P41235; HNF4a-FITC DNA binding, fluorescence polarization, 1 h; activity change, % at 10 µM; 0.3% of 360,000 active; in the data active = activity change above about 30%, passing the limit was not always enough;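 note: controls were the assay level and a saturating level of protein; the project sought stronger binding though the title names inhibitors; some compounds called inactive have numbers as strong as hits; positive values seem to mean higher polarization but the record does not say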
Target sequence (P41235 whole entry, looked up): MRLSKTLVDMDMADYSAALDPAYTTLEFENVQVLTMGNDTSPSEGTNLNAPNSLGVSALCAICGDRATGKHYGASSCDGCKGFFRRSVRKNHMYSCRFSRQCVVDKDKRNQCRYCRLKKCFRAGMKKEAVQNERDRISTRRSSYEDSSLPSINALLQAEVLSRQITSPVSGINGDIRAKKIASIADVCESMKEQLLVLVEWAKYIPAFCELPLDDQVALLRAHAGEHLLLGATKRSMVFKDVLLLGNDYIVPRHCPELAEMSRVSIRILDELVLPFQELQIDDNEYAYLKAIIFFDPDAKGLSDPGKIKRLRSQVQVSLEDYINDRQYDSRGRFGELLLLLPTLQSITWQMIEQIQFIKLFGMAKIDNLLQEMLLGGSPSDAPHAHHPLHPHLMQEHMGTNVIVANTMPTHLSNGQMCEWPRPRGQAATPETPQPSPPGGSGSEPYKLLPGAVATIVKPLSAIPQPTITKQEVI
Numbers without * were called inactive; i = inactive; . = not tested or not shown; + = active, no number.

SMILES | UCH37 DUB inh | E coli growth | LANA-H2A inh | B2AR ag | ALR H2O2 inh | FGF22 binding | HNF4A DNA FP
COCCn1c(C)cc(C2=NNC(=NC3CC3)SC2)c1C | 11 | 0.69 | 2.3 | 4 | 97* | i | -0.7
COc1ccccc1CNc1ncnc2c1cnn2-c1ccccc1 | 2.6 | 0.71 | -2.0 | 4 | -2 | i | -2.3
Cc1sc2ncnc(N3CCN(S(=O)(=O)c4ccc(C(C)(C)C)cc4)CC3)c2c1C | 1.1 | 0.69 | 1.5 | -5 | -3 | i | -1.3
O/N=C(/CCc1ccccc1)C1(O)CCCCC1 | . | . | -2.6 | -2 | 2 | i | -2.5
CCC(Sc1ccccn1)C(=O)Nc1nnc(C)s1 (stereo unspecified) | 0.1 | 0.65 | -0.4 | -18 | -11 | . | -1.5
Cc1nc2ccc(NC(=O)c3cc([N+](=O)[O-])cc([N+](=O)[O-])c3Cl)cc2s1 | 1.6 | 0.69 | 3.1 | 31 | 16 | + | 1.5
COC(=O)c1cccc(Nc2ncnc3sccc23)c1 | -1.1 | 0.72 | 2.8 | 7 | . | . | 1.3
CC(=O)N1CC(C)Sc2ccc(S(=O)(=O)NCc3ccc(F)cc3)cc21 (stereo unspecified) | 0.6 | 0.73 | 4.4 | 3 | -11 | i | 1.3
CCOC(=O)C1=C(N)c2ccccc2CC1C1CCCC1 (stereo unspecified) | -1.2 | 0.65 | 1.1 | 0 | -6 | i | -1.1
Cc1cc(NC(=O)Cc2ccccc2)c2ccccc2n1 | 0.4 | 0.61 | -4.1 | -5 | -12 | i | 4.0
Cc1ccccc1OCC1Cn2c(nc3c2c(=O)[nH]c(=O)n3C)O1 (stereo unspecified) | 1.7 | 0.74 | 0.3 | 3 | -2 | . | -1.4
COC(=O)c1cc(C(=O)OC)n(Cc2ccc(Cl)cc2Cl)n1 | 0.0 | 0.67 | -0.2 | 8 | 2 | . | 2.1
S=C(Nc1ccccc1)N1CCOCC1 | 0.9 | 0.69 | 3.6 | 6 | -4 | i | -0.4
O=C(Nc1ccc(OC(F)F)cc1)c1cc(S(=O)(=O)N2CCOCC2)ccc1F | 5.5 | 0.72 | 1.8 | -4 | -5 | i | 1.9
CN(C)CCn1c(=N)n(CC(O)c2ccc(Cl)c(Cl)c2)c2ccccc21 (stereo unspecified) | 7.1 | 0.67 | -0.6 | 29 | -3 | i | 2.0
CCC(=O)Nc1nc(C)c(C(=O)NC2CCCCC2)s1 | 2.5 | 0.7 | 4.8 | -9 | -1 | . | 0.9
CCCn1c(C)cc(/C=C(\C#N)C(=O)OCC(=O)Nc2ccc(OC)c(Cl)c2)c1C | -141 | 0.76 | 2.1 | 2 | -11 | . | 5.9
COc1ccc(NC(=O)C(=O)c2cn(CC(=O)N3CCOCC3)c3ccccc23)cc1OC | 8.6 | 0.64 | 2.5 | 6 | -27 | i | 0.7
O=C(NCc1ccccn1)c1ccc(NC(=O)c2ccco2)cc1 | 1.6 | 0.76 | -6.4 | 1 | 0 | . | -0.3
CC1CCCCC1NC(=O)NC(=O)CCl (stereo unspecified) | 4.4 | 0.71 | 3.3 | 3 | 55 | i | 3.9
CCOC(=O)C1CCCN(S(=O)(=O)c2cc(OCC(=O)NC3CCCCC3)c(C)cc2Cl)C1 (stereo unspecified) | 0.7 | 0.7 | -0.8 | -4 | -63 | . | 1.4
Cc1ccc(-c2nc3ccccc3c(=O)n2O)cc1 | 1.3 | 0.64 | 4.4 | 8 | 0 | i | 4.3
CC1CCN(CC(=O)N2CCCc3c2c(=O)oc2ccc(OCc4ccccc4)cc32)CC1 | -3.7 | 0.69 | 0.4 | 15 | -7 | . | 0.1
CC1S/C(=N/N=C/c2ccco2)N(Cc2ccccc2)C1=O (stereo unspecified) | . | . | -0.6 | 1 | 1 | i | 4.6
CC(/C=C/c1ccccc1)=N\NC(=O)CNC(=O)c1ccccc1Cl | . | . | -0.6 | -5 | 0 | i | 1.0

Part of the list above, field by field.
Structure: O=C(NCc1ccccn1)c1ccc(NC(=O)c2ccco2)cc1
  UCH37 DUB inh: 1.6
  E coli growth: 0.76
  LANA-H2A inh: -6.4
  B2AR ag: 1
  ALR H2O2 inh: 0
  FGF22 binding: .
  HNF4A DNA FP: -0.3
Structure: CCC(Sc1ccccn1)C(=O)Nc1nnc(C)s1 (stereo unspecified)
  UCH37 DUB inh: 0.1
  E coli growth: 0.65
  LANA-H2A inh: -0.4
  B2AR ag: -18
  ALR H2O2 inh: -11
  FGF22 binding: .
  HNF4A DNA FP: -1.5
Structure: COCCn1c(C)cc(C2=NNC(=NC3CC3)SC2)c1C
  UCH37 DUB inh: 11
  E coli growth: 0.69
  LANA-H2A inh: 2.3
  B2AR ag: 4
  ALR H2O2 inh: 97*
  FGF22 binding: i
  HNF4A DNA FP: -0.7
Structure: CC1CCN(CC(=O)N2CCCc3c2c(=O)oc2ccc(OCc4ccccc4)cc32)CC1
  UCH37 DUB inh: -3.7
  E coli growth: 0.69
  LANA-H2A inh: 0.4
  B2AR ag: 15
  ALR H2O2 inh: -7
  FGF22 binding: .
  HNF4A DNA FP: 0.1

Next part.
SMILES | UCH37 DUB inh | E coli growth | LANA-H2A inh | B2AR ag | ALR H2O2 inh | FGF22 binding | HNF4A DNA FP
COc1ccc(OC(=O)CN2C(=O)C3C4CCC(C4)C3C2=O)cc1 (stereo unspecified) | 0.7 | 0.66 | 0.9 | 15 | . | . | 2.7
Cc1cccn2c(=O)c(/C=N/O)c(N3CCCCC3)nc12 | . | . | -0.6 | -1 | -3 | . | -0.7
CCOc1ccccc1NC(=O)COn1nnc2ccccc21 | -1.7 | 0.7 | 7.0 | 3 | 0 | . | -0.8
CCCCCCC(=O)Nc1nc(C)c(-c2csc(Nc3cc(Cl)ccc3OC)n2)s1 | -4.3 | 0.72 | -0.4 | -7 | 7 | i | 9.2
CCOC(=O)CNC(=O)c1sc(NC(=O)/C=C/c2ccccc2)nc1C | -6.0 | 0.66 | 0.8 | -6 | 39 | i | 2.5
CCOC(=O)Cc1nc2ccccc2o1 | -1.8 | 0.62 | -0.7 | . | -5 | . | .
CC(C)Oc1ccc(S(=O)(=O)N2CCOCC2)cc1NC(=O)CC1CCCC1 | -0.5 | 0.66 | -0.1 | -2 | -1 | i | -1.9
COC(=O)Cn1cnc2c(cnn2-c2ccc(C)cc2)c1=O | -0.3 | 0.68 | -2.7 | 0 | 10 | . | 2.7
CSc1nnc2n(C)c3c(c(=O)n12)C1(CCCC1)Cc1ccccc1-3 | -35 | 0.71 | -0.5 | -6 | 4 | . | -1.5
CC1CN(C(=O)CCC(=O)NCCCc2ccccc2)c2ccccc2O1 (stereo unspecified) | 0.0 | 0.71 | 0.2 | -9 | -7 | i | 1.5
O=C(CN1CCCCC1)Nc1cc(Cl)ccc1Cl | -2.1 | 0.62 | 2.5 | -16 | 3 | . | -2.3
COc1ccc(OC)c(NC(=O)CCn2cccc2)c1 | -0.5 | 0.74 | 3.1 | 2 | . | . | -1.6
CN(Cc1ccccc1)C(=S)Nc1ccc(OC(F)F)cc1 | 3.9 | 0.71 | 2.1 | -10 | 16 | . | -1.4
CC(=O)c1cc(C#N)c(N2CCCCC2)nc1C | 5.7 | 0.62 | 2.6 | -15 | -4 | i | -4.7
CN(C(=O)c1ccccc1C(=O)c1ccccc1)C1CCS(=O)(=O)C1 (stereo unspecified) | 0.9 | 0.68 | -1.0 | 3 | -6 | i | 3.3
Cc1ccc(NC(=O)NC2CCCCCCC2)cc1 | 1.9 | 0.73 | -1.6 | 3 | -11 | i | -2.6
O=C(Nc1ccc(C(=O)NC2CCCCC2)cc1)c1cccnc1 | . | . | 14* | 1 | -8 | i | 0.4
CCCOc1ccc(NC(=O)C2CC(=O)N(C(C)C)C2)cc1 (stereo unspecified) | 1.6 | 0.74 | -1.4 | -4 | -10 | . | 2.9
CC1(C)Cc2nc(-c3ccccc3)nc(SCC(O)CO)c2CO1 (stereo unspecified) | 2.5 | 0.68 | -5.8 | -5 | -1 | i | 3.9
CCCCN(C(=O)C1=NN(c2ccccc2)C(=O)CC1)c1c(N)n(CC(C)C)c(=O)[nH]c1=O | 0.2 | 0.67 | 4.9 | -5 | -1 | i | 1.6
CCOc1ccccc1NC(=O)C1C2C=CC(C2)C1C(=O)O (stereo unspecified) | 0.2 | 0.68 | 4.1 | 5 | -8 | . | -3.2
COCC(=O)NCCc1nc(-c2ccccc2)cs1 | 1.7 | 0.68 | 3.1 | -3 | -34 | . | -2.3
Cc1ccc(CNc2nc3ccccc3n3cnnc23)cc1 | -4.0 | 0.8 | 2.6 | -17 | 0 | i | 5.8
O=C1CC(c2cccs2)CC2=C1C(c1ccccc1)n1ncnc1N2 (stereo unspecified) | -4.9 | 0.81 | 5.1 | 2 | -20 | . | 7.7
CCCCn1cnc2c(Sc3c([N+](=O)[O-])ncn3C)nc(N)nc21 | 6.7 | 0.66 | . | -4 | . | i | -1.1
Following part
SMILES | UCH37 DUB inh | E coli growth | LANA-H2A inh | B2AR ag | ALR H2O2 inh | FGF22 binding | HNF4A DNA FP
COc1ccc(Sc2cc(C(F)(F)F)nc(-c3ccccn3)n2)cc1 | 1.7 | 0.63 | -2.8 | -14 | 30 | . | 0.0
O=C(CCCN1C(=O)/C(=C/c2cccs2)SC1=S)NNC(=O)c1ccncc1 | 8.1 | 0.69 | -1.5 | -7 | -25 | . | 2.9
Cn1c(NCCO)nc2c1c(=O)n(Cc1cccc(Cl)c1)c(=O)n2C | 0.7 | 0.67 | 4.5 | -1 | 10 | i | 1.5
COCCNC(=O)CCn1nc(-c2ccc(C)cc2)ccc1=O | -9.1 | 0.68 | -4.0 | -1 | . | i | 3.9
CN1CCN(C(=S)NC(=O)c2cccc([N+](=O)[O-])c2)CC1 | 4.5 | 0.72 | 1.1 | -2 | 4 | i | 2.0
COc1cccc(NC(=O)CCN2C(=O)c3cccc([N+](=O)[O-])c3C2=O)c1 | 3.4 | 0.66 | 4.5 | 0 | -66 | i | 3.0
CCOC1=C/C(=C/c2c(N)n3nc(CC(=O)N4CCCCC4)sc3nc2=O)C=CC1=O | 16 | 0.64 | -4.9 | -67 | 99* | i | 11
CCOC(=O)c1c(C)[nH]c(C(=O)COC(=O)c2[nH]c(C)c(C(C)=O)c2C)c1C | 5.2 | 0.74 | -3.3 | -6 | -24 | . | 2.3
Cc1ccc(-c2c3c(=O)n(C)c(=O)n(C)c3cn2N2CCOCC2)cc1 | -5.9 | 0.75 | -0.2 | -4 | -5 | . | 1.0
CS(=O)(=O)c1ccc(-c2nnc(NC(=O)C3=COCCO3)o2)cc1 | 9.9 | 0.69 | -1.9 | -7 | -6 | i | 2.0
Cc1ccc(OC(=O)C2c3ccccc3Oc3ccccc32)cc1C | 1.2 | 0.68 | -1.6 | 0 | -8 | i | -1.9
Cc1ccc(S(=O)(=O)C2(C(=O)Nc3ccc(C(C)C)cc3)CC2)cc1 | 1.4 | 0.67 | 0.3 | 0 | -24 | i | 1.6
O=C(NCc1ccncc1)c1ccc(NS(=O)(=O)c2ccccc2)cc1 | 2.6 | 0.7 | 1.3 | 6 | -6 | i | -0.3
CCCCOc1ccc(S(=O)(=O)NNC(=O)C2Cc3c(ccc4ccccc34)O2)cc1 (stereo unspecified) | -1.6 | 0.72 | -1.1 | -2 | 2 | . | 0.2
Cc1nc(SCC(=O)c2ccc(F)cc2)n[nH]1 | -1.2 | 0.67 | -2.2 | -1 | 12 | . | -0.1
Cc1noc(/C=C/N(C)C)c1S(=O)(=O)N1CCc2ccccc21 | 8.7 | 0.74 | 6.6 | 11 | -14 | i | 3.7
CCc1c(C(=O)NCCc2ccc(OC)c(OC)c2)[nH]c(C)c1C(C)=O | 1.5 | 0.68 | -2.1 | 8 | -4 | . | -0.7
CC(C)N1CCOC1c1ccccc1 (stereo unspecified) | -0.3 | 0.63 | . | -1 | . | i | -0.8

An excerpt from above, reduced to FGF22 binding, E coli growth and HNF4A DNA FP.
compound	FGF22 binding	E coli growth	HNF4A DNA FP
Cc1ccc(-c2c3c(=O)n(C)c(=O)n(C)c3cn2N2CCOCC2)cc1	.	0.75	1.0
CS(=O)(=O)c1ccc(-c2nnc(NC(=O)C3=COCCO3)o2)cc1	i	0.69	2.0

Only part of the results is shown (hit frequency here may not be typical).
